VDR inhibitor: blocks the human vitamin D receptor. VDR-SRC2-3 peptide fluorescence polarization, 2 h. 0.93% of 400,000 active. AID 504847. P11473. Potency, µM, for inactives: max response, negative = inhibition, usual class: inhibitors; active = well fitted inhibition curve with a large enough effect; inconclusive = small, poorly fitted or top-dose-only effect, or another doubt; inactive = no such curve, though single readings can be large or run the other way; also: series mostly up to about 120 µM
Target sequence (P11473 whole entry, looked up): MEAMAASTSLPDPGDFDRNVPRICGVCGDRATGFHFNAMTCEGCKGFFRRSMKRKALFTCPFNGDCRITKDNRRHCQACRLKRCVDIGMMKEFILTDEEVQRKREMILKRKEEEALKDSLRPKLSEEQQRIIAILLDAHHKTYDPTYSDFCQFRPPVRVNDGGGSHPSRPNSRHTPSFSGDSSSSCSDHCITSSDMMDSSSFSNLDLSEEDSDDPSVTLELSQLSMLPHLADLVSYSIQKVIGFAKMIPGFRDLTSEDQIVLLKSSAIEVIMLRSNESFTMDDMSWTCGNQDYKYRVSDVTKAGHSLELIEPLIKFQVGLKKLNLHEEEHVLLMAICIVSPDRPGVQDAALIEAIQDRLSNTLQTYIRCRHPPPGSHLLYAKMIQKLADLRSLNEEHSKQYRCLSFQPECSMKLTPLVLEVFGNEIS
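Fluorescence polarization assay measuring small-molecule disruption of VDR binding to the coregulator peptide SRC2-3. Compounds were pin-transferred (23 nl) into the reagent mix and incubated 2 h at room temperature before reading.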
An asterisk follows results filed as active; u = inconclusive; & = joins results of further samples. % is scaled to controls: 0 for no effect and ±100 for the full control effect; potency is read from the fitted curve at half-maximal effect.

VDR inhibitor,SMILES
1.0%,Cc1cc2c(cc(C(=O)NCCCN3CCOCC3)n2Cc2ccc(Cl)cc2)o1
-11.1%,CC(OC(=O)CCCOc1ccccc1)C(=O)NC(N)=O (centres undefined)
-4.2%,CCC(c1nnnn1CCOC)N1CCN(c2cccc(C(F)(F)F)c2)CC1 (centres undefined)
13.6%,CCOc1ccccc1-c1nnc(SCC(=O)Nc2ccccc2)o1
9.5%,COc1cccc(CN2CCNC(=O)C2CC(=O)N(C)CCc2ccccn2)c1 (centres undefined)
1.5%,CCN(C(=O)COC(=O)CCS(=O)(=O)c1ccc(C)cc1)C1CCS(=O)(=O)C1 (centres undefined)
-6.2%,CCN(CC)C(=O)c1nc[nH]c1C(=O)N(C)Cc1ccccc1
6.1%,CCOc1ccccc1C(=O)Nc1cccc2ccccc12
-5.1%,[O-][n+]1onc2c1C(N1CCOCC1)CCC2N1CCOCC1 (centres undefined)
-17.0%,C=CCOc1c(Br)cc(/C=N\n2nnnc2N)cc1OC

Other results.
VDR inhibitor,SMILES
17.5%,COc1ccc(C(=O)NCC2OCCc3ccccc32)c(O)c1 (centres undefined)
-19.1%,CC1CCCCC1NC(=O)c1cccc(NC2=NC3CS(=O)(=O)CC3S2)c1 (centres undefined)
-2.7%,CCOc1ccc(-c2nnc3ccc(SCC(=O)Nc4nc5ccc(C)cc5s4)nn23)cc1
-6.2%,C=C(C)CCC(C)N1CCC(n2nccc2NC(=O)CCCc2ccccc2)CC1 (centres undefined)
9.4%,CCOc1ccc(NC(=O)N2CCC(CN3CCC(C)CC3)CC2)cc1
12.9%,COc1ccc(CCNC(=O)c2nc(-c3ccc(Cl)cc3)n3c2CCCCC3)c(OC)c1
7.7%,Cc1cc(C)n2c(SCCO)nnc2n1
-5.5%,Cc1noc(C)c1S(=O)(=O)Nc1ccc(C(=O)Nc2ccc(C(C)C)cc2)cc1
0.0%,CCn1cc(SCC(=O)NC2CCCC2)c2ccccc21
18.3%&2.1%,NC(CO)(CO)CO

Compounds shown so far containing an aryl thioether with sulfur outside any ring, in the order listed:
VDR inhibitor,SMILES
13.6%,CCOc1ccccc1-c1nnc(SCC(=O)Nc2ccccc2)o1
-2.7%,CCOc1ccc(-c2nnc3ccc(SCC(=O)Nc4nc5ccc(C)cc5s4)nn23)cc1
7.7%,Cc1cc(C)n2c(SCCO)nnc2n1
0.0%,CCn1cc(SCC(=O)NC2CCCC2)c2ccccc21

The list goes on:
VDR inhibitor,SMILES
9.1%,CCN1CCC(N(Cc2ccc3c(c2)OCO3)C(=O)Nc2cc(F)ccc2F)CC1
2.7%,Cc1nc(S(=O)(=O)c2ccc(Cl)cc2)c(N(C)C)o1
-8.0%,CCOC(=O)C1CCCCN1Cc1ccc(F)c(Br)c1 (centres undefined)
-1.2%,O=C(CSCc1c(Cl)cccc1Cl)Nc1cccnc1
u,Cc1ccc(C2CC(c3cccs3)=NN2C(=O)CCl)cc1 (centres undefined)
-12.7%,CCCN(CCC)S(=O)(=O)c1ccc(C(=O)NCc2n[nH]c(=S)n2-c2ccc(Cl)c(Cl)c2)cc1
6.8%,c1ccc(-n2nnnc2SCc2cn3ccccc3n2)cc1
-12.3%,C[C@@H]1CN(c2nc3nonc3nc2N2CCSCC2)C[C@H](C)O1
16.5%,COc1ccc(N=c2oc3c(OC)cccc3cc2C(=O)NCc2ccco2)cc1OC
12.1%,COc1ccc(-c2nc(-c3ccc(NC(=O)c4ccc(Br)o4)cc3)no2)cc1OC

Later entries:
VDR inhibitor,SMILES
2.5%,Cc1ccc(S(=O)(=O)N2CCOCC2)cc1NC(=O)COC(=O)Cn1c(C)csc1=O
7.1%,CCOC(=O)c1cnc(SCC(=O)OCC(=O)N(CC)C2CCS(=O)(=O)C2)nc1N (centres undefined)
-7.9%,CC1CC(C)CN(CC(=O)Nc2ccc(S(N)(=O)=O)cc2)C1 (centres undefined)
-13.4%,C[C@]12c3[nH]c4ccccc4c3CCN1C(=O)C(CC(=O)NCCN1CCOCC1)C[C@@H]2C(=O)N1CCOCC1 (some centres undefined)
-4.3%,Cc1ccc(C(=O)N(CC(=O)NC2CCCC2)c2ccc3c(c2)OCCO3)s1
-15.7%,Cc1cc(NS(=O)(=O)c2ccc(NC(=O)C(C)N3C(=O)c4ccccc4C3=O)cc2)nc(C)n1 (centres undefined)
-9.2%,Cc1ccc[n+](CC(=O)c2ccc(Br)cc2)c1
-3.5%,CCc1ccc(-c2csc3ncn(CC(=O)N4CCOCC4)c(=O)c23)cc1
0.9%,CC(=O)c1ccc(NC(=O)CCNS(=O)(=O)c2ccccc2F)cc1
16.5%,COCCCNC(=O)CCn1c(=O)c2ccccc2n(CC(=O)Nc2ccc(C)cc2C)c1=O

(cont.)
VDR inhibitor,SMILES
2.2%,O=C(Nc1cnn(Cc2ccc(F)cc2)c1)c1noc2c1CCCC2
9.4%,S=C1NCN(Cc2cccnc2)CN1c1cccc2ccccc12
17.4%,CCN(CC)S(=O)(=O)c1cccc(NC(=O)COC(=O)C2COc3ccccc3O2)c1 (centres undefined)
-10.3%,CCn1cc(/C=C/C(=O)Nc2c(C)nn(Cc3ccccc3C)c2C)cn1
0.2%,COc1ccc(C2=NO[C@@H]3C(=O)N(Cc4ccccc4)C(=O)[C@H]23)cc1OC
-4.0%,CC1(Cc2cn(CCC#N)c3ccccc23)OCCO1
14.2%,O=C(O)CCC(=O)Nc1ccc2c(c1)oc1ccccc12
4.3%,Cc1ccc(C)c(N2CCN(C(=O)c3cccn4c(=O)c5sccc5nc34)CC2)c1
-27.8%,COc1ccc([N+](=O)[O-])cc1NC(=O)C(C)OC(=O)C1CC(=O)N(Cc2ccco2)C1 (centres undefined)
20.0%,Cc1nn(C)c(C)c1NS(=O)(=O)c1ccccc1Cl

Fetched one by one from the entries so far (2):
VDR inhibitor,SMILES
-27.8%,COc1ccc([N+](=O)[O-])cc1NC(=O)C(C)OC(=O)C1CC(=O)N(Cc2ccco2)C1 (centres undefined)
-10.3%,CCn1cc(/C=C/C(=O)Nc2c(C)nn(Cc3ccccc3C)c2C)cn1

More structures:
VDR inhibitor,SMILES
16.0%,COc1ccccc1C(=O)Nc1ccc2nc(SCC(=O)N3CCCC3)sc2c1
19.0%,O=C(Cn1nc2sc3ccccc3n2c(=O)c1=O)c1ccc(Cl)cc1
-14.8%,O=C(CSCc1cnn(-c2ccccc2)c1-n1cccc1)NCc1cccs1
-19.0%,COc1cc(/C=N/NC(=O)CCc2n[nH]c(=O)[nH]c2=O)cc(OC)c1OC
-1.0%,CSc1nc2cc(C)nn2c(-c2ccc(C(C)(C)C)cc2)c1C#N
-22.6%,C=CCn1c(=O)/c(=C/c2ccc(Cl)cc2)s/c1=C(/C#N)c1nnc2n1CCCCC2
-16.5%,CCN1/C(=C/c2ccc3cc(C)ccc3[n+]2CC)Sc2ccc3sccc3c21
4.0%,O=C(CSc1nnc(-c2cc(-c3cccs3)nc3ccccc23)o1)NC1CCCCC1
-15.0%,CC1=C(C(=O)Nc2ccc(C)cc2C)C(c2cccs2)NC(=S)N1 (centres undefined)
7.2%,Cc1ccccc1NC(=O)CNC(=O)c1ccc(C(F)(F)F)cc1

Going on with the list.
VDR inhibitor,SMILES
3.9%,O=C1N(c2ccc3c(c2)OCCO3)C(c2ccccc2)C1(F)F (centres undefined)
14.0%,Cc1cnc(C(=O)OCC(=O)C23CC4CC(CC(C4)C2)C3)cn1
-8.2%,CCn1nnc(NC(=O)C(C)(c2ccccc2)c2ccccc2)n1
-4.1%,CCCCCCCNc1nc(Cl)nc(NCCO)n1
-14.6%,CCOC(=O)C1=c2/c(=C/c3ccncc3)c(N)c(C(=O)OC)n2C(=O)C(c2ccncc2)S1 (centres undefined)
-15.3%,COC(C[C@@H]1O[C@@H]1C(=O)[C@@H](C)OCc1ccccc1)OC
4.1%,O=C(Nc1ccc(Cl)cn1)c1ccc(COc2ccccc2Br)o1
-7.8%,Cc1cccc(-n2ncc3c(N4CCC(C)CC4)ncnc32)c1
-6.6%,CCC1C(=O)CC(c2ccco2)NC1c1ccco1 (centres undefined)
5.2%,CN(C)/C=C/C(=O)c1cnc2sccn2c1=O

Continued:
VDR inhibitor,SMILES
3.8%,Cc1cccc(NC(=O)N(Cc2cc3cc(C)ccc3[nH]c2=O)CC2COCCO2)c1 (centres undefined)
-23.9%,COc1cc(CC(=O)Nc2ccc3nc(SC)sc3c2)cc(OC)c1OC
-1.5%,O=C(Cn1c(=O)n(Cc2ccccc2)c(=O)c2oc3ccccc3c21)Nc1ccc(Cl)cc1
-7.6%&-8.3%,Cc1cc2c(c(C)c1Cl)C(c1ccc3c(c1)OCO3)CC(c1ccccc1)O2 (centres undefined)
-10.5%,O=C(NCCCn1ccnc1)c1ccc2c(c1)OCCO2
7.2%,CCOC(=O)CCc1c(C)nc(SCCCn2c(=O)[nH]c3ccccc32)c(C#N)c1C
-3.5%,COc1ccc(-c2cnnn2-c2ccc([N+](=O)[O-])cc2)cc1
-14.4%,CC1CCN(S(=O)(=O)c2ccc(C(=O)Nc3ccccc3-c3nc4ccccc4[nH]3)cc2)CC1
3.0%,O=C1N=C(N2CCOCC2)CS1
-5.5%,Cc1cc(C)c(NC(=O)C2CCCN2CCO)c(C)c1 (centres undefined)

Later entries.
VDR inhibitor,SMILES
-10.9%,Cc1ccccc1CSCCNC(=O)c1ccc(Cl)c(S(=O)(=O)N2CCOCC2)c1
1.2%,CCC(C)Oc1nc2c(c(=O)n(C)c(=O)n2C)n1C (centres undefined)
10.1%,COc1ccc(C(=O)N2CCSC2=S)cc1OC
-6.1%,O=C(CSc1nc(-c2ccco2)cc(C(F)(F)F)n1)NCCCN1CCOCC1
-4.6%,CSc1nsc(SCC(=O)Nc2ccc(C(C)=O)cc2)n1
1.3%,O=C(CNS(=O)(=O)c1cccs1)Nc1ccc2c(c1)OCCO2
-0.1%,O=C(c1cnn(C(=O)c2cccc(S(=O)(=O)N3CCOCC3)c2)c1)c1cc(Cl)cc(Cl)c1O
2.8%,O=S(=O)(c1ccc2c(c1)OCCO2)N1CCN(c2ncnc3sccc23)CC1
-15.7%,N#Cc1ccc(C(=O)NCCCSc2ccccc2)cc1
-5.6%,OCC1(CCc2ccccc2)CCCN(C/C=C/c2ccccc2)C1 (centres undefined)

Nothing new here: an excerpt of the list.
VDR inhibitor,SMILES
-10.9%,Cc1ccccc1CSCCNC(=O)c1ccc(Cl)c(S(=O)(=O)N2CCOCC2)c1
1.2%,CCC(C)Oc1nc2c(c(=O)n(C)c(=O)n2C)n1C (centres undefined)
10.1%,COc1ccc(C(=O)N2CCSC2=S)cc1OC
-6.1%,O=C(CSc1nc(-c2ccco2)cc(C(F)(F)F)n1)NCCCN1CCOCC1
-4.6%,CSc1nsc(SCC(=O)Nc2ccc(C(C)=O)cc2)n1

(list continues)
VDR inhibitor,SMILES
-1.3%,Cc1ccc(C)c(N2N=C(C(=O)NCCN3C(=O)S/C(=C\c4cccnc4)C3=O)CCC2=O)c1
-6.1%,CC(Oc1ccccc1)C(=O)Nc1ccc(S(=O)(=O)N2CCOCC2)cc1 (centres undefined)
-4.5%,Cc1nn(-c2ccc(C(=O)O)cc2)c(C)c1Oc1ccccc1O
2.0%,Cc1ccc2cc(CN(CCN3CCCC3)C(=O)Nc3ccc(F)cc3)c(=O)[nH]c2c1C
2.1%,Cc1ccccc1OCc1nc2ccccc2c(=O)n1/N=C/c1cn[nH]c1-c1ccc(Br)cc1
-17.9%,S=C(NC1CCCCC1)N1CCOCCOCCN(C(=S)NC2CCCCC2)CCOCCOCC1
3.5%,Cc1ccc(S(=O)(=O)CCC(=O)O)cc1C
u,CC(=O)OC1CC(O)C(C)(C)C2CC(OC(C)=O)[C@]3(C)C(CC[C@@]4(C)C(c5ccoc5)OC(=O)C5OC534)[C@]12C (some centres undefined)
-5.4%,Cn1c(N)c(C(=O)COC(=O)CCc2nc3ccccc3s2)c(=O)n(C)c1=O
-10.7%,CC1=CN2C(=N)/C(=C/c3ccco3)C(=O)N=C2S1

Remaining list, next part:
VDR inhibitor,SMILES
-5.3%,C=CCC[C@@H](Cc1ccc(F)cc1)C(=O)O[C@H](CNC(=O)[C@@H](CC=C)CC(=O)N[C@H](CO)Cc1ccccc1)c1ccccc1
-6.3%,O=C(NN1CCOCC1)c1cc(S(=O)(=O)Nc2cccc(C(F)(F)F)c2)ccc1Cl
-2.5%,O=C(NCCC1CCCCN1S(=O)(=O)c1cccs1)C(=O)NCc1ccccc1 (centres undefined)
-4.5%,O=C(NCc1ccco1)c1ccc(NS(=O)(=O)c2cccc(F)c2)cc1
-3.2%,COC(=O)[C@]1(CC(C)C)N[C@H](c2ccc(-c3ccc4c(c3)OCO4)cc2)[C@@H]2C(=O)N(C)C(=O)[C@@H]21
2.4%,NS(=O)(=O)c1cc(C(=O)OCCNC(=O)c2ccccc2)c(Cl)cc1Cl
-6.4%,COc1ccc(N2CCOCC2)c(NC(=O)COc2cccc(C)c2C)c1
-23.9%,COC(=O)N/N=C/c1cn(Cc2ccc(Cl)cc2Cl)c2ccccc12
16.8%,COc1ccc(S(=O)(=O)N2CCOCC2)cc1NC(=O)CN1CCCc2ccccc21
5.9%,CCCOc1ccc(-c2nc(SC)[nH]c(=O)c2C#N)cc1OC

Other compounds:
VDR inhibitor,SMILES
2.9%,Cc1ccc2ccc3cc(C(=O)N4CCN(c5ccccc5)CC4)nc3c2[nH]1
5.6%,COC(=O)c1cc2oc3ccccc3c2n1Cc1ccc(Cl)cc1
-1.5%,Cc1ccc(OCC(=O)Nc2ccc3c(c2)nc(CCN2CCCCC2)n3C)cc1
-13.4%,O=C(N/N=C/c1ccc(OC(F)F)cc1OC(F)F)c1cccc(S(=O)(=O)N2CCOCC2)c1
0.0%,COc1cccc(NS(=O)(=O)c2ccc3c(c2)CC(=O)N3)c1
-11.7%,COc1cccc(N/C(N)=N/c2nc(C)cc(=O)[nH]2)c1
u,CCOC(=O)N1CCN(C(=O)CSc2nnc(-c3cc(OC)ccc3OC)o2)CC1
9.1%&-13.4%,COc1cc2c(cc1OC)C(c1cccc(Cl)c1)CC(=O)N2 (centres undefined)
-18.6%,COC(=O)Cn1c2ccc(OC)cc2c2nc(C)sc21
-20.5%,CCSc1nnc(NS(=O)(=O)c2ccc(C)cc2)s1

This is a subset, so the mix of outcomes need not match the whole.
